StopGo FLuc: lowers the firefly signal of an FMDV 2A StopGo reporter | HEK cells with a luciferase reporter of 2A StopGo recoding | Potency, µM (series often up to 57.5 µM), for inactives: at the highest dose signal change, negative = less light | 120,000 compounds, 0.23% hits | AID 1745856; active = well fitted falling curve with a large enough effect; inconclusive = small, poorly fitted or top-dose-only effect; inactive = no such curve, though single readings can be large or run the other way; note: nearly all actives have a fitted effect of over 60% in size; overnight with compound
2A Renilla: FMDV 2A StopGo reporter, Renilla signal. HEK cells with a luciferase reporter of 2A StopGo recoding. Potency, µM (doses to about 57.5 µM), for the others: at the highest dose signal change, negative = less light. 120,000 compounds, 0.32% hits. AID 1745857; active means well fitted falling curve with a large enough effect; inconclusive means small, poorly fitted or top-dose-only effect; inactive means no such curve, though single readings can be large or run the other way; note: nearly all actives have a fitted effect of over 55% in size; overnight with compound
* marks the source's active call; other numbers are inactive results; ? = inconclusive; & = joins results of further samples; [ ] = remark or other dose. % is set by controls: 0 for no effect and ±100 for the full control effect; potency is the fitted concentration of half-maximal effect.

compound | StopGo FLuc | 2A Renilla
CS(=O)(=O)N1N=C(c2ccc(Cl)cc2)CC1c1ccccc1 (stereo not drawn) | 140%[activator] | 156%[activator]
COc1ccc(CNC(=O)Cn2nnc(-c3ccc(C(F)(F)F)cc3)n2)cc1 | 5% | 11%
Cc1ccc(CNC(=O)c2ccc(CS(=O)Cc3cccc(Cl)c3)o2)cc1 (stereo not drawn) | -11% | -9%
O=C(CN1C(=O)CCc2cc(S(=O)(=O)N3CCOCC3)ccc21)Nc1cccc(C(F)(F)F)c1 | -18% | 10%
CCCNC(=O)CCc1c(C)nc2c(-c3ccccc3)c(C)nn2c1C | -7% | -10%
CN(C)CC[C@@H](c1ccc(Br)cc1)c1ccccn1 | -8%[11.5 µM] | -11%
COCCCNC(=O)CSc1nc2cc3c(cc2c(=O)n1CCCCCC(=O)NCc1ccc2c(c1)OCO2)OCO3 | -13% | -3%
CCCCc1ccc(NC(=O)Cn2nnc3sc4c(c3c2=O)CCC(C)C4)cc1 (stereo not drawn) | -9% | -4%
Cc1[nH]c2ccccc2c1C1(O)C(=O)Nc2ccc(Cl)cc21 (stereo not drawn) | -6% | -2%
CCOC(=O)C1CCN([C@H]2CS(=O)(=O)C[C@@H]2S(=O)(=O)c2ccc(F)c(C)c2)CC1 | -2% | 4%
CCS(=O)(=O)N1CC(=O)N(Cc2ccccc2Cl)C(C)(C(=O)NCc2ccccc2OC)C1 (stereo not drawn) | -4% | 15%
CC(=O)c1ccc(S(=O)(=O)N2CCC(Oc3ccc(-n4cnnn4)cc3)CC2)cc1 | -21% | -11%

(next part)
compound | StopGo FLuc | 2A Renilla
COc1ccc(N2CCN(C(=O)C(C)n3nc(C)c4sc5ccccc5c4c3=O)CC2)cc1 (stereo not drawn) | -16% | -13%
COc1cccc(/C=C/C(=O)Oc2ccc(Br)cc2)c1 | 60%[activator] | 13%
CCOc1ccc(CNC(=O)CSc2c3c(nc4cc(Cl)ccc24)CCCC3)cc1 | 50%[activator] | 4%
O=C(NCC1CCCCC1)c1ccncc1 | 7% | 5%
CCN(c1ccccc1)c1nnc(NC(=O)Nc2ccccc2OC)s1 | 15% | 9%
CSC1=N/C(=C\c2ccc(I)o2)C(=O)S1 | 12% | -3%
C/C(=N\NC(=O)c1cccs1)c1ccccc1 | 265%[activator] | 39%[activator]
O=C(OCC(=O)N(/N=C/c1ccccc1)c1cccc(C(F)(F)F)c1)c1cc(Cl)ccc1[N+](=O)[O-] | -25% | ?
C[C@@H]1OC(C2CCCCC2)N(C)[C@H]2C[C@H]3c4[nH]c5c(-c6ccc7c(c6)OCO7)cccc5c4CCN3C[C@@H]12 (stereo partly drawn) | -6% | -2%
CCOc1ccc(CCNC(=O)CCSCc2cccc(Cl)c2)cc1OCC | -14% | 4%
CC(C)Oc1ccc(CNC(=O)CCCN2C(=O)CCn3nc(-c4cccn4C)cc32)cc1 | -9% | -8%
Cc1ccc2[nH]cc(CCNC(=O)/C=C/c3cccc(F)c3)c2c1 | 11% | 5%

Further results follow.
compound | StopGo FLuc | 2A Renilla
Cc1ccc2nc(CSc3nnc(NC(=O)c4ccc(C(C)(C)C)cc4)s3)cc(=O)n2c1 | -13% | -6%
CCOc1ccc(C2=Nn3c(nnc3-c3cccc(C)c3)SC2)cc1 | -16% | 14%
COc1cc(-c2c(C#N)c(N)nc3c2c(=O)nc2sccn23)ccc1OCc1ccccc1F | -1% | -7%
COc1ccc(NC(=O)Cn2ccc3ccc(Cl)cc32)c(OC)c1 | -2% | 13%
CC(NC(=O)CCC(=O)NCCc1ccc(Cl)cc1)C12CC3CC(CC(C3)C1)C2 (stereo not drawn) | 11% | 7%
CCCCNC(=O)CSc1nc2cc3c(cc2c(=O)n1CCCC(=O)NCc1ccc2c(c1)OCO2)OCO3 | -17% | -5%
Cc1ccc2c(c1)C1(C(=O)N2)C(C#N)=C(N)N(c2ccc(C(F)(F)F)cc2)C2=C1C(=O)CCC2 (stereo not drawn) | -22% | -11%
CC(NC(=O)c1ccc(NC(=O)c2nsc3ccccc23)cc1)c1ccccc1 (stereo not drawn) | -67% | 1%
COc1ccc(S(=O)(=O)Nc2nc3ccccc3nc2Nc2cccc(F)c2)cc1 | -8% | 4%
O=C(CSc1nccn1C1CCCC1)Nc1ccc(C(F)(F)F)cc1 | -16% | -11%
CN(C)C(=O)C1CN(C(=O)CCc2ncc(-c3ccccc3Cl)o2)c2ccccc2O1 (stereo not drawn) | -1% | -6%
COc1ccc(-c2nc3ccc(C)cc3c(=O)o2)cc1OC | 7% | 2%

More results follow:
compound | StopGo FLuc | 2A Renilla
COc1cc(/C=C/c2nc(C#N)c(NCc3ccco3)o2)cc(OC)c1OC | 39%[activator] | 62%[activator]
O=C(NCCC1=CCCCC1)C1CCN(C(=O)N2CCOc3ccccc32)CC1 | 19% | 4%
O=C(CSc1nccn1Cc1ccc2c(c1)OCO2)NCc1ccc2c(c1)OCO2 | -11% | 0%
Cc1c(CCNC(=O)Cc2ccccc2)sc2nc(-c3ccc(F)cc3)nn12 | 34%[activator] | -12%
C/C(=N/NC(=O)c1cccs1)c1ccc(Br)cc1 | 135%[activator] | 24%
Cc1nc2nc(C)c(NC(=O)Nc3ccccc3C(F)(F)F)c(=O)n2[nH]1 | 0% | -11%
Cc1nnc(NC(=O)c2cc(=O)c3cc(C)c(C)cc3o2)s1 | 20% | 8%
O=C(NC(C1CC1)C1CC1)c1ccccc1Cl | 30% | 19%
CCC(=O)Nc1ccc(-c2nnc3c4ccccc4c(C)nn23)cc1 | 6% | 12%
COc1cc(-c2nc(Cn3nnc(C(=O)Nc4ccc(C)cc4C)c3C)c(C)o2)cc(OC)c1OC | -7% | -11%
CNC(=S)N/N=C/c1cccc([N+](=O)[O-])c1 | 31%[activator] | 8%
CCCCOc1ccc(/C=C(/C#N)c2ccccn2)cc1 | 0% | 16%

(cont.)
compound | StopGo FLuc | 2A Renilla
Cn1c(O)c(C2=Nc3ccccc3SC(c3ccc(O)cc3)C2)c(=O)[nH]c1=O (stereo not drawn) | 268%[activator] | 58%[activator]
CN(CC(=O)NC(N)=O)C1CCCCCC1 | -4% | 3%
CCC1CCCCN1C(=O)CSc1nc(-c2ccc(OC)cc2)cc(C(F)(F)F)n1 (stereo not drawn) | -6% | 4%
CCc1cnc2c(c1SCC(=O)NCc1ccc(F)cc1)c(=O)n(C)c(=O)n2C | -7%&-13% | -7%&5%
O=C(N/N=C/c1c[nH]c2ccccc12)c1csc2ccccc12 | 191%[activator] | 42%[activator]
Cc1ccc(Cl)cc1-n1ncc2c(Nc3cccc(C)c3C)ncnc21 | -21% | -27%
CC(=O)NCc1ccc(-c2csc(Nc3cccc(C(F)(F)F)c3)n2)o1 | 35%[activator] | -7%
Cc1ccc(CNc2nc3ccccc3nc2NS(=O)(=O)c2ccccc2)cc1 | 0% | 0%
CN1CCN(CCCN2c3ccccc3Sc3ccc(C(F)(F)F)cc32)CC1 | -16%[11.5 µM] | -9%
Cc1ccc2nc(N(Cc3cccnc3)C(=O)C3CCCCC3)sc2c1 | -8% | 0%
O=C(c1cccc(C(F)(F)F)c1)N1CCCC(C(=O)N2CCCCCC2)C1 (stereo not drawn) | 0% | 32%
COc1ccc(NC(=O)CSc2ncc3c(n2)-c2cc(Cl)ccc2N(Cc2ccccc2F)S3(=O)=O)cc1 | -7% | -1%

More entries
compound | StopGo FLuc | 2A Renilla
CCCn1c2ccccc2c2cnn(CC(=O)N(CCCOC)Cc3ccco3)c(=O)c21 | -18% | -9%
COc1ccc(-c2c(C)oc3cc(OC)ccc23)cc1 | 227%[activator] | 16%
CC(=O)NC(C)c1ccc(C(=O)CSc2cc(Cl)ccc2Cl)cc1 (stereo not drawn) | 14% | 9%
Cc1ccc(NC(=O)Nc2ccccc2Sc2nc3c(c(=O)n(C)c(=O)n3C)n2C)cc1C | 1% | 17%
Cc1nn(-c2ccccc2)c(OC(=O)c2ccc(F)cc2)c1S(=O)(=O)c1ccccc1 | -11% | 5%
COc1cccc(N(CC(=O)Nc2ccc(C(N)=O)cc2)S(=O)(=O)c2ccccc2)c1 | 19% | 170%[activator]
NC(=O)c1cc(Cl)ccc1OCc1cccc(C(F)(F)F)c1 | 0% | -4%
Cc1ccc(-n2nc3ccc(NC(=O)COc4ccccc4C)cc3n2)cc1 | 10% | -4%
Cc1ccc(C(=O)NCCc2c[nH]c3ccccc23)c(C)c1 | 0% | 7%
COc1ccc2oc(=O)c(C(=O)N3c4ccccc4CC3C)cc2c1 (stereo not drawn) | 12% | 37%[activator]
Cc1nnc(N2CCC(C(=O)NC3CCCCC3)CC2)c2nn(-c3ccc(Cl)cc3)c(C)c12 | -7% | 2%
N#CC(C#N)=C(Nc1ccc(Oc2ccccc2)cc1)C(F)(F)C(F)(F)F | 0% | 0%

Later entries.
compound | StopGo FLuc | 2A Renilla
O=C(COC(=O)c1ccc2c(c1)OCCO2)NCc1ccccc1Cl | -8% | -12%
COc1cc(C)cc2oc(=O)c(CC(=O)NCc3cccc(Cl)c3)c(C)c12 | -4% | 1%
O=C(CN1CCOCC1)Nc1cccc(C(=O)Nc2cccc(C(F)(F)F)c2)c1 | ? | -21%
O=C(Nc1ccccc1)c1cnc(N2CCCCC2)c2ccccc12 | ? | ?
CC(C)=CC1C(C(=O)NCC(C)(C)N2CCOCC2)C1(C)C (stereo not drawn) | 0% | -2%
CCc1cccc(NC(=O)C(Cc2ccccc2)NS(=O)(=O)c2cccs2)c1 (stereo not drawn) | -10% | 109%[activator]
C/C(=N\Nc1ccccc1)c1cccc([N+](=O)[O-])c1 | 52%[activator] | -3%
Cc1cc(C)cc(N2C(=O)CS(=O)(=O)C23C(=O)N(Cc2ccc(F)cc2)c2ccc(C)cc23)c1 (stereo not drawn) | 21%&-10% | 0%&-4%
S=C(N/N=C1\CCCCC1C1CCCCC1)Nc1ccccc1 (stereo not drawn) | 0% | 44%[activator]
Cc1nnc(NC(=O)c2csc(NCC(C)C)n2)s1 | 274%[activator] | 54%[activator]
CCCCCNC(=O)C1CCC(Cn2c(=O)c3sccc3n(CC)c2=O)CC1 (stereo not drawn) | -10% | -9%
CCn1c(=O)cc(SCC(=O)N2CCN(c3ccccc3F)CC2)c2ccccc21 | 0% | 0%

The list continues:
compound | StopGo FLuc | 2A Renilla
Cc1ccccc1Nc1nnc(-c2ccc(C)c(S(=O)(=O)N3CCN(C)CC3)c2)c2ccccc12 | -25% | -10%
O=c1ccc2cc(S(=O)(=O)Nc3ccc(OC(F)(F)F)cc3)ccc2[nH]1 | -2% | 33%[activator]
COc1cccc(C2CC(=O)Nc3c2ccc(C)c3C)c1OC (stereo not drawn) | 25% | 25%
Cc1ccc(NC(=O)CCn2nc(-c3ccccc3)c3ccccc3c2=O)c(C)c1 | -16% | -11%
Cc1onc(-c2ccccc2)c1-c1nnc(CN2CCN(CC(=O)N3CCOCC3)CC2)o1 | -12% | -8%
CC(C)NC(=O)c1cccc(NC(=O)Nc2cccc(Cl)c2)c1 | 44%[activator] | -13%
CCN1CCN(c2ccc(NC(=O)c3ccccc3OC)cc2Cl)CC1 | 101%[activator] | -13%
CCOC(=O)c1oc2cc(OC)ccc2c(=O)c1-c1ccccc1OC | 36%[activator] | 12%
CC(C)(CNC(=O)NCC1CCCC1)C(N)=O | 8% | -1%
COC(=O)C(NC(=O)c1ccccc1)(Nc1nc(C2CC2)cs1)C(F)(F)F (stereo not drawn) | 20% | 173%[activator]
CCNC(=S)N/N=C(/C)C1CCCCC1 | 0% | 5%
Cn1c(C=O)ccc1-c1ccc(Cl)cc1 | 143%[activator] | 4%

The list continues:
compound | StopGo FLuc | 2A Renilla
COc1c(C)c2c(c(O)c1C/C=C(\C)CCC(=O)OCCN1CCOCC1)C(=O)OC2 | ? | -36%
CCCOc1ccc(CN(C(=O)c2cc(=O)c3c(C)cc(C)cc3o2)C2CCS(=O)(=O)C2)cc1 (stereo not drawn) | 12% | 0%
Cc1c(C(=O)N2CCCC(C(F)(F)F)C2)sc2cccc(F)c12 (stereo not drawn) | 31%[activator] | 38%[activator]
COCCn1c(SCC(=O)Nc2cc(C)c(Cl)cc2OC)nnc1-c1cccc(C)c1 | -10% | 4%
NC(=S)NNC(=O)c1ccccc1C(=O)O | 48%[activator] | 27%
CCOC(=O)c1c(C)c(C(=O)Nc2ccc(Br)cc2C)c(C)n1C | 3% | 1%
COC(=O)c1sc(NC(=O)COc2c(C)cccc2C)nc1C | 38%[activator] | 24%
Cc1ccc(-c2noc(Cn3cnc4scc(-c5ccc(C)cc5)c4c3=O)n2)cc1 | -2% | -10%
COc1ccc(NC(=O)N(C)[C@H]2C[C@H]3c4[nH]c5c(-c6cccc(C)c6)cccc5c4CCN3C(=O)[C@H]2[C@H](C)O)cc1 | -4% | ?
CNC(=O)c1c[nH]c2ccc(S(=O)(=O)Nc3cccc(Cl)c3C)cc2c1=O | 40%[activator] | 226%[activator]
CNC(=O)c1nn(CC(=O)Nc2ccc(OC)cc2OC)c(=O)c2ccccc12 | 24% | 21%
CCc1ccc(CNC(=O)c2ccc(NC(=O)N3CC(C)Sc4ccccc43)cc2)cc1 (stereo not drawn) | -2% | 5%

Of the compounds above, 6 have two or more sulfur atoms.
compound | StopGo FLuc | 2A Renilla
CCOC(=O)C1CCN([C@H]2CS(=O)(=O)C[C@@H]2S(=O)(=O)c2ccc(F)c(C)c2)CC1 | -2% | 4%
CSC1=N/C(=C\c2ccc(I)o2)C(=O)S1 | 12% | -3%
Cc1ccc2nc(CSc3nnc(NC(=O)c4ccc(C(C)(C)C)cc4)s3)cc(=O)n2c1 | -13% | -6%
COc1ccc(NC(=O)CSc2ncc3c(n2)-c2cc(Cl)ccc2N(Cc2ccccc2F)S3(=O)=O)cc1 | -7% | -1%
CCc1cccc(NC(=O)C(Cc2ccccc2)NS(=O)(=O)c2cccs2)c1 (stereo not drawn) | -10% | 109%[activator]
Cc1nnc(NC(=O)c2csc(NCC(C)C)n2)s1 | 274%[activator] | 54%[activator]

Source: PubChem BioAssay
